High-throughput results: PubChem, Fisher Drug Discovery Resource Center
NPYLR7 agonist: activates Aedes aegypti NPYLR7 receptor. HEK293T NPYLR7/Galpha15, GCaMP6s calcium fluorescence. activation, % at 10 µM. 270,000 tested, 0.15% active. AID 1259423; in the data active = activation above about 40%;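 note: 0% = vehicle and 100% = reference agonist at the receptor; some compounds past the cut are filed as inactive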
NPYLR7 agonist max-min: recorded beside NPYLR7 agonist, whose call it bears; activation, %; measured here: Max-Min RFU normalised activation; some inactives read as strong as hits;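 span of the calcium signal over five minutes; 0% = vehicle and 100% = native peptide agonist; compound fluorescence can raise it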
Numbers without * were called inactive; & = joins results of further samples. These rows are one share of the data; rates above refer to the full screens.

SMILES	NPYLR7 agonist	NPYLR7 agonist max-min
COc1ccccc1C(C)N(C)C(=O)c1cccc(F)c1OC (stereo not given)	-1	-3
CC1(C(=O)NS(=O)(=O)c2cccc(OC(F)F)c2)CCN1C(=O)C1(c2ccccc2)CC1 (stereo not given)	3	2
CCOC(=O)C1(NC(=O)c2cccc(NC(=O)C3CC3C)c2)CCCCC1 (stereo not given)	15	15
O=C(C1=Cc2cc(Cl)ccc2OC1)N1CCC(c2ccccc2)CC1	-7	-11
COc1ccc(S(=O)(=O)Nc2ccc(N(C)C)c(CN(CC3CC3)C(=O)c3cccc(C)c3)c2)cc1	28	26
COc1ccc2nc(N(CCCN(C)C)C(=O)c3cc(C)nn3C)sc2c1	2	0
O=C1CC2(CCCCC2)C(=O)N1	2	-1
CCS(=O)(=O)n1nc(-c2ccco2)nc1SC	3	2
Nc1cc(Cl)ccc1N1CCCC1	3	3
CC(C)c1ccc(C(=O)N2CCOC(C(F)(F)F)C2)c(=O)[nH]1 (stereo not given)	-2	-1
N#CCc1nc2ccccc2[nH]1	13	12
Cn1c(-c2ccccc2)cc2c(Nc3cccc(S(C)(=O)=O)c3)nccc21	-4	-9
Cc1ccc(NC(=O)c2cc(-c3ccccc3Cl)nn2-c2ccc(Cl)c(Cl)c2)cc1	1	0
O=C(c1ccc2ncsc2c1)N1CCC(n2c(-c3ccccc3)nc3ccc(F)cc32)CC1	-3	-6
O[C@@H]1CN(c2ncnc3nc[nH]c23)CC[C@H]1c1ccc2c(c1)OCO2	0	6
COc1cccc(OCC2c3ccsc3CCN2C(=O)CN(CC2CCCO2)C(=O)c2cccs2)c1 (stereo not given)	-6	1
FC(F)(F)c1ccnc(NOCc2ccccc2)n1	-4	-3
COc1ccc(CC(=O)NCCn2nc(-c3cccs3)ccc2=O)cc1	-1	-2
O=C(NCc1ccc2c(c1)OCO2)c1cccnc1N1CCN(C(=O)CCCOc2ccccc2)CC1	14	0
O=C(NCc1cccnc1)c1c2c(nc3ccccc13)CCCC2	-3	0
O=C(CCl)Nc1noc2ncccc12	3	2
CC(=O)c1cccc2c1OC(C)C(=O)N2Cc1ccccc1F (stereo not given)	2	-1
O=C(O)CSc1cccc[n+]1[O-]	2	0
O=c1cc(CNc2cc(Cl)ccc2Cl)nc2sccn12	-6	-5
Cn1c(-c2ccc(F)cc2)csc1=N	12	5
CCC(C)Oc1ccc(CN(C)Cc2noc(C)n2)cc1Cl (stereo not given)	6	3
CO/N=C(/C(=O)NC(C)CC(C)C)c1csc(NC=O)n1 (stereo not given)	2	-1
COc1cc(C)ccc1Oc1cc(-c2ccccc2)nc(SCc2ccccc2)n1	3	4
C=CCC(c1ccccc1F)N(CCN1CCOCC1)C(=O)Nc1cccc(Cl)c1 (stereo not given)	3	2
O=C(Nc1cc(F)ccc1Oc1ccccc1)N1CCC(CCO)C1 (stereo not given)	-2	-3
CC(=O)Nc1ccc(Cl)c(C(=O)NCCCCc2ccccn2)c1	24	18
COc1cccc(NC(=O)N2CCSC2c2cccc(OCc3ccccc3)c2)c1 (stereo not given)	19	28
O=C(CSc1nc(Cl)cc(N2CCN(C(c3ccccc3)c3ccccc3)CC2)n1)NCc1ccc(F)cc1	27	28
CN(C)C(=O)N1CCC(C(=O)N(C)c2ccccc2-c2ccccc2)CC1	-2	-4
CCN(CC(=O)N(Cc1cccn1Cc1ccccc1Cl)C1CCCCC1)S(=O)(=O)c1ccc(C)cc1	-3	7
CCOC(=O)C1CCN(C(c2ccccc2Cl)C2Sc3nc(C)nn3C2=O)CC1 (stereo not given)	1	-1
CC1(CNC(=O)CC(CCc2ccccc2)c2c[nH]c3ccc([N+](=O)[O-])cc23)CCCO1 (stereo not given)	24	13
CCc1ccc(S(=O)(=O)N2CCN(c3nccc(-c4cccc(C(F)(F)F)c4)n3)CC2)cc1	11	2
CC(=O)NNC(=O)CCc1nc2ccccc2c(=O)[nH]1	7	2
N#Cc1ccccc1S(=O)(=O)NC1CCSc2ccccc21 (stereo not given)	-3	-3

Given with each value named: two of the compounds above
O=C(CSc1nc(Cl)cc(N2CCN(C(c3ccccc3)c3ccccc3)CC2)n1)NCc1ccc(F)cc1
  NPYLR7 agonist = 27
  NPYLR7 agonist max-min = 28
CN(C)C(=O)N1CCC(C(=O)N(C)c2ccccc2-c2ccccc2)CC1
  NPYLR7 agonist = -2
  NPYLR7 agonist max-min = -4

Record cards, from the list above.
Entry for CC1(CNC(=O)CC(CCc2ccccc2)c2c[nH]c3ccc([N+](=O)[O-])cc23)CCCO1 (stereo not given) = NPYLR7 agonist = 24; NPYLR7 agonist max-min = 13
Entry for O=C(CSc1nc(Cl)cc(N2CCN(C(c3ccccc3)c3ccccc3)CC2)n1)NCc1ccc(F)cc1 = NPYLR7 agonist = 27; NPYLR7 agonist max-min = 28

Continuation:
SMILES	NPYLR7 agonist	NPYLR7 agonist max-min
O=C(Nc1ccc(C(F)(F)F)cc1)N(Cc1ccco1)CC1CCCO1 (stereo not given)	-24	-22
CCCN(Cc1cccc(Cl)c1)C(=O)c1ccoc1	-7	-8
O=C1C2N=NN(C(=O)Nc3cccc(F)c3)C2C(=O)N1Cc1cccc(F)c1 (stereo not given)	11	8
Cc1ccc(C2=NOC(CN(Cc3cccc(Cl)c3)CC(O)COc3ccccc3C)C2)cc1 (stereo not given)	-1	5
CCOc1ncccc1CN1CCC(C(=O)N2CCC(O)(c3ccccc3)CC2)CC1	5	0
COc1ccccc1Nc1nc(C)c([N+](=O)[O-])c(Nc2ccccc2OC)n1	-6	-10
O=S(=O)(Nc1cccc(OC2CCCC2)c1)c1ccccc1F	-4&-6	-5&-5
CN(C)C(=O)CNC(=O)c1cc(-c2cccc(Cl)c2)no1	-1	-1
CCn1c2ccccc2c2cc(Nc3ccnc(NCCCN4CCOCC4)n3)ccc21	-7	-10
COc1cccc(C(=O)N(Cc2nccn2Cc2c(C)cc(C)cc2C)CC(C)C)c1	25	34
CSCCC(C(=O)O)N1C(=O)C2C3C=CC(C3)C2C1=O (stereo not given)	-2	-5
COc1ccc(-c2cnccc2C)cc1Cl	2	36
COc1cccc(NS(=O)(=O)c2cccc(C(F)(F)F)c2)c1	-2	-4
COc1ccccc1C(=O)NC1CCN(c2ccccc2C(=O)NCc2ccco2)CC1	-5	2
O=C(c1ccc2snnc2c1)N1CCN(Cc2ccc(-c3noc(C4CCCC4)n3)cc2)CC1	6	7
Cc1cc(C(=O)N(C)CC(=O)c2ccc(O)cc2)ccc1F	0	4
CCC(C(=O)OC)n1nc(C2CCNCC2)n(Cc2ccccc2)c1=O (stereo not given)	0	-3
COc1ccc(Br)cc1S(=O)(=O)NC(=O)/C=C/c1ccccc1Cc1ccc2ccccc2c1	-11	-16
O=C(COC(=O)c1ccc(S(=O)(=O)N2CCOCC2)cc1)NCCC1=CCCCC1	-6	-7
CCc1ccccc1NC(=O)Cn1ccn2nc(-c3ccc(OC)c(OC)c3)cc2c1=O	18	11
COC(=O)[C@@H]1C[C@@H](N(C)C)CN1C(=O)c1cc(C2CC2)nc2onc(C)c12	0	-3
Nc1nnc(C(NC(=O)c2cc3sccc3[nH]2)c2ccccc2)s1 (stereo not given)	16	8
Cc1scnc1C12CC3CC(CC(C3)C1)C2	-2	-2
CN1CCN(c2nc3c(c(=O)[nH]c(=O)n3C)n2Cc2ccccc2F)CC1	1	4
CC1CCCCN1c1cc(C(F)(F)F)nc(SCc2ccc(C(=O)O)cc2)n1 (stereo not given)	15	27
NC(=O)NC(=O)CN1CCN(Cc2ccc3c(c2)OCO3)CC1	-5	-9
COc1ccc(/C=C/CN2CCN3CCN(C)CC3C2)cc1 (stereo not given)	6	2
O=C(O)c1cccn(Cc2ccc(Cl)c(Cl)c2)c1=O	2	1
CN(Cc1ccccc1)C(=O)CSc1nnc(-c2ccco2)n1C	-3	-8
CN(Cc1nc(COc2ccccc2)no1)CC1CCOCC1	15	4
O=C1OCCN1c1cccc(NC(=O)N2CCCC2c2ccsc2)c1 (stereo not given)	3	3
Cc1cc2cccc(C(=O)N3[C@H]4CCNC[C@@H]3CC4)c2o1	3	-1
COc1cc(CNC(=O)c2ccc(-c3cc(-c4cccc(C(F)(F)F)c4)n[nH]3)cc2)cc(OC)c1	28	21
COCCNC(=O)CCN(CC(C)C)c1nc(-c2cccs2)nc2ccccc12	-6	6
COc1cccc(CN2CCN(CC(C)C)C(=O)C2C)c1O (stereo not given)	-4	-5
O=C(CCc1ccc2c(c1)OCO2)N1CCc2c([nH]c3ccccc23)C1C1CCCCC1 (stereo not given)	0	-2
Cc1ccn2c(=O)nc(SCc3cccc([N+](=O)[O-])c3)nc2c1	2	2
N#Cc1cccc(C(=O)N2CCN(c3ncccc3C(=O)NCc3ccc4c(c3)OCO4)CC2)c1	19	11
COC(=O)CC(NS(=O)(=O)c1c(C)noc1C)c1ccc(Cl)cc1 (stereo not given)	2	0
N#C/C(=C\c1ccc(O)c(O)c1)C(=O)NCCc1ccccc1	16	-65
Cc1c(-c2ccccc2)c(=O)oc2c3c(ccc12)OCN(CCN1CCOCC1)C3	-9	-16
O=C(NCCN1CCCC1)[C@@]1(OCc2ccc(F)cc2)CC(OCc2c(F)cccc2F)[C@H](O)[C@H](O)C1 (stereo not given in full)	15	21
COc1ccc(C=C2SC(=O)N(CCNC(=O)c3ccc(Br)o3)C2=O)cc1OC	-5	-6
CCc1cn[nH]c1C1CCN(C(=O)CCc2ccc(=O)[nH]n2)CC1	15	11
O=C(NCCCN1CCCC1=O)c1c(-n2cccc2)sc2c1CCCC2	1	-1
Cc1csc(=Nc2ccc(Cl)c(Cl)c2)n1/N=C\c1ccccn1	1	-2
Cc1nnc(SCC(=O)N2CCCC(C(=O)c3ccc4c5c(cccc35)CC4)C2)o1 (stereo not given)	20	11
COc1ccccc1-c1ccc2c(c1)C(C)(Cc1ccc(S(C)(=O)=O)cc1)C(=O)N2 (stereo not given)	1	0
Cc1nc2cccc(C)n2c(=O)c1NC(=O)Cc1ccc(-c2ccccc2)cc1	2	0
CCCN(CC(=O)N(Cc1ccccc1)Cc1cccn1C)C(=O)c1ccc(Br)cc1	10	16

Among those listed so far, these contain an aryl thioether with sulfur outside any ring:
SMILES	NPYLR7 agonist	NPYLR7 agonist max-min
CCS(=O)(=O)n1nc(-c2ccco2)nc1SC	3	2
O=C(O)CSc1cccc[n+]1[O-]	2	0
COc1cc(C)ccc1Oc1cc(-c2ccccc2)nc(SCc2ccccc2)n1	3	4
O=C(CSc1nc(Cl)cc(N2CCN(C(c3ccccc3)c3ccccc3)CC2)n1)NCc1ccc(F)cc1	27	28
CC1CCCCN1c1cc(C(F)(F)F)nc(SCc2ccc(C(=O)O)cc2)n1 (stereo not given)	15	27
CN(Cc1ccccc1)C(=O)CSc1nnc(-c2ccco2)n1C	-3	-8
Cc1ccn2c(=O)nc(SCc3cccc([N+](=O)[O-])c3)nc2c1	2	2
Cc1nnc(SCC(=O)N2CCCC(C(=O)c3ccc4c5c(cccc35)CC4)C2)o1 (stereo not given)	20	11

Further structures
SMILES	NPYLR7 agonist	NPYLR7 agonist max-min
O=C(COC(=O)C1c2ccccc2Oc2ccccc21)c1ccc(Br)s1	0	-3
CN(Cc1noc(C2CCC2)n1)Cc1ncccc1C(=O)O	-1	-12
Clc1cc(Cl)c2nc(N3CCc4ccccc4C3)sc2c1	2	-1
Cn1ccnc1CN1CCC(c2ccnc(-c3cccc(O)c3)c2)C1 (stereo not given)	15	10
Cc1cc(C)cc(CSCC(=O)N2CCCC(N(C)C)CC2)c1 (stereo not given)	11	9
COc1ccc(CNC(=O)C2CC(=O)N(N(C)c3ccccc3)C2)c(OC)c1 (stereo not given)	-4	-17
CCC(c1cccnc1)N(C)C(=O)c1ccc(F)cc1Cl (stereo not given)	-4	-4
O=C(CN1CCOc2ccccc2C1)NCc1nnc2n1CCC2	8	5
CNC(=O)CN(C(=O)c1ccncc1Cl)c1ccccc1C	0&3	-1&1
Cc1cc(C)nc(NC(=O)c2ccccc2C(=O)O)n1	-5	-8
CCc1nc2ccc(C(=O)NCCc3ccccn3)cn2c1N(C)Cc1nccn1C	-4	-7
C=C(C)Cn1c(SCC(=O)N/N=C(\C)c2ccc(OC)c(OC)c2)nnc1-c1ccc(Br)cc1	-1	-13
COC(=O)c1ccsc1N1C(=O)CC(Sc2ccccc2C(=O)O)C1=O (stereo not given)	4	3
O=C(Cc1cc(=O)[nH]c(SCC(=O)Nc2cccc(Cl)c2)n1)NCc1cccs1	-21	-25
Nc1ncccc1Cl	-1	6
CCNC(=O)C1(C)CCCN(Cc2csc(-c3ccc(Cl)cc3)n2)C1 (stereo not given)	7	2
Cc1cc(C)cc(Nc2nc(C)cc3nn(CC(=O)NC4CCCC4)c(=O)n23)c1	-8	-9
Cc1ccccc1C1(C(=O)NCCC2CC(C)N(Cc3ccccc3)C2)CCOCC1 (stereo not given)	3	2
COC1(C)C(C)(C)C(c2ccc(Cl)cc2)C1(C#N)C#N (stereo not given)	-4	-5
Cc1cnc(NC(=O)C2CC=CCC2)s1 (stereo not given)	2	8
Cc1cc(=O)[nH]c(N=C(NC(=O)c2ccccc2)Nc2ccc(Oc3ccccc3)cc2)n1	-10	-15
NC(=O)CSc1cn(CCNC(=O)c2ccccc2)c2ccccc12	3	3
COc1ccc(Cl)cc1NC(=O)Cc1ccsc1	19	18
CC1C(=O)N(c2ccc3c(c2)CCC3)CCN1C(=O)c1cccc(F)c1 (stereo not given)	0	4
O=C(c1ccc(-c2ccc3nnc(-c4cccc(O)c4)n3c2)cc1)N1CCOCC1	13	3
CCOC(=O)c1cc(-c2ccccc2C)n(-c2ccc(C(=O)N3CCC3)cc2)n1	-2	8
O=c1c2cnc3nc(-c4cccnc4)nn3c2ccn1Cc1cccnc1	3	3
Cc1nc(Nc2ccc(NC(=O)c3ccc4c(c3)OCO4)cc2)cc(-n2ccnc2)n1	-15	-20
Cc1cc(C)n(-c2cc(NCCNC(=O)Nc3ccc(F)cc3F)ncn2)n1	-4	-12
O=C(O)c1cccnc1N1CCC(N2CCCC2=O)CC1	-4	-4
CCOc1ccc(NC(=O)N2CCN(c3nc(CC(C)C)nc4sc5c(c34)CCC(C)C5)CC2)cc1 (stereo not given)	-9	5
